A647 autofl: qHTS Assay for Spectroscopic Profiling in A647 Spectral Region. AID 592, 2007. max dye-equivalent concentration, M. 59,000 tested, under 10 active. Compound fluorescence, A647 channel (570/671 nm), Tris buffer; active means above 1 µM dye equivalent; inconclusive means 0.1 to 1 µM; inactive means 0.1 µM or less;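 further: values scaled relative to a standard on each plate; highest value over a series up to 38 µM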
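Compound fluorescence was measured in 100 mM Tris buffer, pH 8.0, after 15 min at room temperature, using 570 nm excitation and 671 nm emission filters. Signal was normalized to a per-plate Alexa 647 standard curve and expressed as dye-equivalent concentration at each compound concentration.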
AID923: qHTS Assay for Allosteric/Competitive Inhibitors of Caspase-1: Spectroscopic Profiling in AFC Spectral Region; compound fluorescence, AFC spectral region (405/520 nm); almost no hit is shown here; Potency, µM (doses to about 57.5 µM), inactives show at the top dose fluorescence increase, usual class: activators; 75,000 tested, 1.1% active; active means well fitted activation curve with a large enough effect; inconclusive means small, poorly fitted or top-dose-only effect;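 further: potency means the concentration at half of the fitted maximal effect; 0% is about no effect; scaled to a free AFC standard on each plate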
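Baseline compound fluorescence (AFC region, 405 nm ex/520 nm em) taken from the intercept of kinetic reads with 50 nM caspase-1 and 5 uM Ac-WEHD-AFC; normalized to an on-plate AFC standard curve; compounds titrated up to 57 uM.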
Resorufin fluor: qHTS Assay for Spectroscopic Profiling in Resorufin Spectral Region. 59,000 tested, 0.04% active. max dye-equivalent concentration, M. Compound fluorescence, resorufin region 547/598 nm, buffer; active compounds read high; active = above 10 nM dye equivalent; inconclusive = 1 to 10 nM; inactive = 1 nM or less; a few of its hits are not listed in these tables; further: highest value over a series up to 38 µM
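Compounds in 100 mM Tris, pH 8.0, incubated 15 min at room temperature, then fluorescence read at 547 nm excitation/598 nm emission. Signal converted to dye-equivalent concentration via an on-plate six-point resorufin standard curve, per compound concentration.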
A488 fluor: qHTS Assay for Spectroscopic Profiling in A488 Spectral Region; compound autofluorescence, A488 spectral region, dye equivalency; active compounds read high; max dye equivalency, M; 59,000 tested, 0.1% active; active = above 10 nM dye equivalent; inconclusive = 1 to 10 nM; inactive = 1 nM or less; about half of its hits are not listed in these tables;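 further: highest value over a series up to 38 µM; compound alone in buffer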
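Readout is A488 dye-equivalent concentration, calibrated by a per-plate six-point Alexa 488 series. Compounds in 100 mM Tris buffer pH 8.0 were incubated 15 min at room temperature. Plates were imaged using 480 nm excitation/540 nm emission filters.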
TSHR agonist: qHTS Assay for Agonists of the Thyroid Stimulating Hormone Receptor | Thyrotropin receptor (Homo sapiens), P16473 | HEK293-CNG-TSHR cells (CNG channel as cAMP sensor), membrane potential dye, cAMP | Potency, µM (highest dose often 57.1 µM), without a hit: at the highest dose activation, actives largely listed as activators | 73,000 tested, 0.48% active; active = well fitted activation curve of enough size with the parental cells flat; inconclusive = any curve in the parental cells; inactive = parental cells flat and receptor cells flat or falling; further: potency means the concentration at half of the fitted maximal effect; % of control where 0% means no effect; weak receptor curves with flat parental cells got no call and are not listed
Target sequence (P16473 whole entry, looked up): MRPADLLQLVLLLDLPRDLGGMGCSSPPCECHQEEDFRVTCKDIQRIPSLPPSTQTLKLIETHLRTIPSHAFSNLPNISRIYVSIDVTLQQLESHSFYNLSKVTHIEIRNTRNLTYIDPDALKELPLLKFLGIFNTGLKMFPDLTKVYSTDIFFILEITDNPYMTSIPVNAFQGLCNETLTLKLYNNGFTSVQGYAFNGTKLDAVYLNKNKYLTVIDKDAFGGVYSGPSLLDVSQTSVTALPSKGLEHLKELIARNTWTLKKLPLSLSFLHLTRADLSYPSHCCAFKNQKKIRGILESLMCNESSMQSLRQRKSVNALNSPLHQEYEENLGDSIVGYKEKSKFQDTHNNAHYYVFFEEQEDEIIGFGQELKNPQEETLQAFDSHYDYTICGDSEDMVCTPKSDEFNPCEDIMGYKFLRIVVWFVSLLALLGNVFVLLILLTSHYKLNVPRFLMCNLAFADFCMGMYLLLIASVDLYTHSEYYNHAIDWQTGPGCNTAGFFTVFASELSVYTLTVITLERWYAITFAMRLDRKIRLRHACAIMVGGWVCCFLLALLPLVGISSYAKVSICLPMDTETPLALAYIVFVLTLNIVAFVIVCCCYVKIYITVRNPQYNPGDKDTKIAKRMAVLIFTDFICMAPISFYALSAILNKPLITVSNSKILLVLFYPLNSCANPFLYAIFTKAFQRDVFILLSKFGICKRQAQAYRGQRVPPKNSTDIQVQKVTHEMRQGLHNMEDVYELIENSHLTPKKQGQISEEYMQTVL
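HEK 293 cells stably expressing TSHR and a cAMP-gated CNG channel; parental CNG-only cells as counterscreen. Cells preloaded 60 min with membrane potential dye plus 100 uM RO 20-1724, then compound 30 min; fluorescence read at 590 nm.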
* marks the source's active call; other numbers are inactive results; i = inactive; ? = inconclusive; · = not tested or not shown; & = joins results of further samples; [ ] = another dose, or the depositor's remark.

SMILES | A647 autofl | AID923 | Resorufin fluor | A488 fluor | TSHR agonist
CCC(=O)Nc1ccc(C(=O)CSc2nnc(CNc3ccc(Cl)cc3)o2)cc1OC | 2.9e-08 | 0.1% | i | i | ?
CC1CCCN(c2nc3c(c(=O)n(C)c(=O)n3C)n2Cc2ccccc2)C1 (stereo not given) | 3.6e-08 | 0.5% | i | i | ?
CCOC(=O)c1c(NC(=O)c2ccc(Cl)s2)sc(C)c1C | · | 8.6% | · | · | -4%
Cc1ccc(C)c(NC(=O)c2ccccc2O)c1 | 5.8e-09 | 0.6% | i | i | ?
O=C(O)c1cc2c(ccc3ccccc32)[nH]1 | 2.1e-08 | -2.9% | i | i | 16%
CCc1ccccc1O | · | -5.1% | · | · | 0%
COC(=O)c1ccc(CSCC(=O)Nc2cc(OC)cc(OC)c2)o1 | 2.9e-08 | -0.3% | i | i | -4%
C[C@@](N)(C(=O)O)c1ccc(P(=O)(O)O)cc1 | · | -2.6% | · | · | 3%
O=C(NCCCN1CCOCC1)c1cc(-c2ccc(Cl)cc2)on1 | 3.3e-08 | 0.1% | i | i | 10%
COc1ccccc1OCCn1c(CO)nc2ccccc21 | 6.3e-09 | 2.6% | i | i | -2%
COc1ccc(NC(=O)N2CC[C@@]3(CCCN(S(C)(=O)=O)C3)C2)cc1 | 2.7e-08 | 16% | i | i | 5%
Cc1cc(C)c2c(n1)SCC(=O)N2CC(=O)NCCC1=CCCCC1 | · | -0.3% | · | · | 6%
O=C1CSC(=Nc2cc(Cl)ccc2Cl)N1 | 1e-08 | -2.2% | i | i | 15%
CC1=CC(=O)CC(C)(C)C1(O)/C=C/C(C)=C\C(=O)O (stereo not given) | · | 3.5% | · | · | ?
CCCc1nc(N)c(C#N)c(-c2ccco2)c1CC | 1e-09 | 1.5% | i | i | ?
O=C(O)c1ccccc1-c1ccc(/C=c2\sc3nc4cc(Br)cnc4n3c2=O)o1 | · | 15% | · | · | -2%
N=c1sccn1CC(=O)Nc1ccccc1-c1ccccc1 | 1e-09 | 0.3% | i | i | 14%
CCC1CCCCN1C(=O)Nc1ccc(F)cc1 (stereo not given) | 1.3e-08 | 0.9% | i | i | 5%
CC(C)(C)C(=O)/C=C(N)/C=C/c1ccccc1 | · | -1.7% | · | · | ?
O=C(Nc1cc(N2CCOCC2)ncn1)Nc1cccc2ccccc12 | 3.2e-09 | 1.4% | i | i | -1%
COC(=O)c1cc(NC(=O)c2c(Cl)nc3sccn23)cc(C(=O)OC)c1 | 3.9e-08 | -2.4% | i | i | 19%
O=C(O)Cc1[nH]cnc1C(=O)O | 1e-09 | 4.5%[11.5 µM] | i | i | -2%[11.4 µM]
Cc1ccc(S(=O)(=O)Nc2nncs2)cc1 | 1.3e-08 | -1.1% | i | i | 19%[11.4 µM]
COc1ccc(N=C(N(C)C)P(=O)(N(C)C)N(C)C)cc1 | 1e-09 | -0.6% | i | i | -6%[11.4 µM]
Cc1ccc(CN2C(=O)CCC2C(=O)NCCCN2CCC(C)CC2)cc1 (stereo not given) | 3.3e-09 | -0.1% | i | i | 3%
CCOC(=O)Nc1ccc2c(c1)nc(CN1CCOCC1)n2C | 1.3e-09 | -1.4% | i | i | -1%
CC(NC(=O)CSc1ncnc2nc[nH]c12)c1ccccc1 (stereo not given) | · | -1.8% | · | · | 4%[11.4 µM]
O=C1CC(C(=O)NCc2ccccc2)C2(CCCC2)O1 (stereo not given) | 1e-09 | -1.9% | i | i | -5%
COCC(=O)NCCc1nc(-c2ccccc2)cs1 | 1.2e-08 | -0.9% | i | i | 2%
Cc1ccc(S(=O)(=O)NCC(=O)OCC(=O)N2CCc3ccccc32)cc1 | 1e-09 | 0.3% | i | i | 3%
O=c1[nH]c2ccccc2n1CCCSc1cnc2ccccc2n1 | 3.8e-09 | -2.5% | i | i | ?
CCOC(=O)Cc1csc(NC(=O)c2ccoc2C)n1 | 2.5e-09 | 0.0% | i | i | 2%
CCOC(=O)CSc1nnc(CNC(=O)Cc2ccccc2)n1-c1ccccc1OC | 2e-08 | 0.0% | i | i | 4%
Cc1c(C(=O)Nc2ccncc2)sc2nc(-c3ccccc3)cn12 | · | 6.9% | · | · | ?
CCOC(=O)C1=C(C)OC(N)=C(C#N)C1c1cc2c(cc1Br)OCO2 (stereo not given) | 1.3e-08 | 13% | i | i | ·
Cc1cc(NC(=O)c2noc3c2CCCC3)nn1Cc1ccc(Cl)cc1 | 5.7e-09 | 0.5% | i | i | ?
CCOC(=O)N1CCC(NC(=O)C2CCN(C(=O)N3CCOc4ccccc43)CC2)CC1 | 5.5e-09 | 1.0% | i | i | 1%
Clc1ccc2[nH]c3c(NCCN4CCOCC4)ncnc3c2c1 | 1.5e-08 | · | i | i | ·
COc1cc(OC)c(C(=O)CCCCN2CCC3(CC2)NC(=O)NC3=O)cc1NS(=O)(=O)c1ccc(C(F)(F)F)cc1 | · | 1.1% | · | · | 0%
Cc1noc(C)c1COc1ccc(C(=O)OCC(=O)c2ccc3c(c2)OCCO3)cc1 | 3.6e-08 | -0.3% | i | i | ?
O=C(OCC(=O)N1CCN(C(=O)c2ccco2)CC1)c1ccccc1C(=O)c1ccc(Cl)cc1 | 1e-09 | -2.0% | i | i | -6%
COc1ccc(-c2nn3c(-c4ccccn4)nnc3s2)cc1OC | 1.5e-09 | · | i | i | ·
O=C(COC(=O)c1cccc(S(=O)(=O)N2CCc3ccccc32)c1)NC1CCS(=O)(=O)C1 (stereo not given) | 3.6e-08 | 0.1% | i | i | -1%
N#CC1=C(O)C(c2ccccc2)n2c1nc(=O)c1ccccc12 (stereo not given) | 1.7e-08 | 0.1% | i | i | 6%
N#C/C(=C\c1ccc[nH]1)S(=O)(=O)c1ccccc1 | 1.5e-08 | -1.5% | i | i | 2%
Cc1sc(NC(=O)CCCC(=O)O)c(C#N)c1C | · | 1.5% | · | · | -3%
O=C(N1CCCCCC1)N1CCN(C(=O)N2CCCCC2)CC1 | 1.2e-09 | 2.0% | i | i | 8%
O=C(Nc1nnc(CCc2ccccc2)s1)c1cccs1 | 1e-09 | -1.1% | i | i | 5%
COC(=O)C/C=C\[C@@H](C)[C@@H](CO)NS(=O)(=O)c1ccc(C)cc1 | · | -3.9%[11.5 µM] | · | · | 8%[11.4 µM]
O=C(CSc1nnc(Cc2cccs2)n1Cc1ccco1)Nc1ccc(Cl)cc1Cl | 1e-09 | 1.2% | i | i | ?
O=C(Cc1ccc(Cl)cc1)NCCN1CCCC1 | 2.1e-09 | -0.6% | i | i | 1%
CCc1nnc(NC(=O)C2CC(=O)N(c3ccc(C)cc3)C2)s1 (stereo not given) | 5e-09 | -1.2% | i | i | -1%[11.4 µM]
c1ccc2c(c1)CCN(c1ncnc3nc[nH]c13)C2 | · | -0.4% | · | · | ?
CCOC(=O)c1sc(=S)n(CC)c1NC(=O)C1CC1 | 2.6e-08 | -0.2% | i | i | 18%
Nn1cnnc1SCC(=O)Nc1ccc2c(c1)OCCO2 | 6.2e-09 | 0.8% | i | i | -2%
O=C(NCc1cccs1)C1CCN(c2nccs2)CC1 | 1e-08 | 1.6% | i | i | 0%
COC(=O)c1ccc(NC(=O)CN2CCN(S(=O)(=O)c3cc(Cl)ccc3OC)CC2)cc1 | 1e-09 | -0.8% | i | i | -7%
O=c1[nH]cnc2c1oc1ccccc12 | 3.1e-08 | -0.1% | i | i | 0%
Cc1sc2nc(C3CC3)nc(N3CCN(S(=O)(=O)c4ccc(F)cc4)CC3)c2c1C | 1e-09 | -3.9% | i | i | -7%
Cn1c(=O)c2c(nc(N3CCOCC3)n2C)n(C)c1=O | · | 0.8% | · | · | 4%

Continuation.
SMILES | A647 autofl | AID923 | Resorufin fluor | A488 fluor | TSHR agonist
CCCn1c(OC)nc2c1c(=O)n(C)c(=O)n2C | · | 9.1% | · | · | 3%
O=P(C1=C(N2CCOCC2)/C(=C\c2ccccc2)CC1)(N1CCOCC1)N1CCOCC1 | 1e-09 | -0.3% | i | i | 3%
CCOC(=O)c1sc(NC(=O)COC(=O)c2ccco2)nc1C | · | 0.1% | · | · | -4%
CSc1ncccc1C(=O)OCc1ccccc1F | 1e-09 | -0.8% | i | i | ?
Cc1[nH]nc(-c2ccc(O)cc2O)c1Oc1ccccc1 | 1.8e-08 | · | i | i | ·
CC(C)(C)c1ccc([C@@H](O)CCCN2CCC(C(O)(c3ccccc3)c3ccccc3)CC2)cc1 | 3.2e-08&5.4e-09 | -0.2%[25.7 µM] | i | i | -16%[25.6 µM]
COc1cccc(OC)c1OCCNC[C@@H]1COc2ccccc2O1 | 5.6e-09 | -1.1%&-2.5% | i | i | ?
COc1cc(N=C(N)N=C(N)N)c2ncccc2c1 | 3.8e-08 | 3.3%[11.5 µM] | i | i | 2%[11.4 µM]
N#CC1=C(N)C(C#N)(C#N)C2(C(=O)Nc3ccccc32)C2CCCC=C12 (stereo not given) | · | 5.6% | · | · | -2%
Cc1cc(NC(=O)CSc2nnc3c4c(C)c(C)sc4ncn23)no1 | 2.1e-08 | -0.4% | i | i | 9%
Cc1nn(Cc2ccc(Cl)cc2)c(C)c1NC(=O)C1CC=CCC1C(=O)O (stereo not given) | 4.6e-08 | -0.7% | i | i | 5%
Cc1cc(C)nc(SCNC(=O)c2ccccc2)n1 | 3.8e-08 | -0.8% | i | i | 10%

An excerpt of these results, field by field:
CCOC(=O)c1sc(NC(=O)COC(=O)c2ccco2)nc1C
  A647 autofl: ·	AID923: 0.1%	Resorufin fluor: ·	A488 fluor: ·	TSHR agonist: -4%
CSc1ncccc1C(=O)OCc1ccccc1F
  A647 autofl: 1e-09	AID923: -0.8%	Resorufin fluor: i	A488 fluor: i	TSHR agonist: ?
Cc1[nH]nc(-c2ccc(O)cc2O)c1Oc1ccccc1
  A647 autofl: 1.8e-08	AID923: ·	Resorufin fluor: i	A488 fluor: i	TSHR agonist: ·
CC(C)(C)c1ccc([C@@H](O)CCCN2CCC(C(O)(c3ccccc3)c3ccccc3)CC2)cc1
  A647 autofl: 3.2e-08&5.4e-09	AID923: -0.2%[25.7 µM]	Resorufin fluor: i	A488 fluor: i	TSHR agonist: -16%[25.6 µM]

Next section:
SMILES | A647 autofl | AID923 | Resorufin fluor | A488 fluor | TSHR agonist
Cc1cc(C(=O)O)c(CSc2ncn[nH]2)o1 | 3.2e-09 | · | i | i | ·
O=C(NCc1cccnc1)C1c2ccccc2C(=O)N1C1CCCCCCC1 (stereo not given) | 3.3e-09 | 1.1% | i | i | 1%
O=CN1Cc2[nH]c3ccccc3c2N(c2ccc(Cl)cc2)C1=O | 2.2e-08 | 1.2% | i | i | -2%
O=C(Nc1ccc(NC(=O)C23CC4CC(CC(C4)C2)C3)cn1)c1ccco1 | 6e-09 | 0.3% | i | i | 1%
COc1ccc(CN(CCCN2CCOCC2)C(=O)Nc2cccc(Cl)c2)cc1OC | 2.6e-08 | 0.2% | i | i | ?
COc1ccc(C(=O)N(Cc2ccco2)C(C(=O)NC2CCCC2)c2ccc(O)cc2)cc1OC (stereo not given) | 3.2e-08 | -1.3% | i | i | 20%
O=C(Cn1nnc(-c2ccccc2)n1)N1CCN(S(=O)(=O)c2ccc(Cl)cc2)CC1 | 1.1e-08 | -0.6% | i | i | 9%
Cc1ccc(S(=O)(=O)N(CC(=O)N2CCC(C(N)=O)CC2)c2cccc(C(F)(F)F)c2)cc1 | · | -2.4% | · | · | -1%
O=c1[nH]c(CN2CCN(Cc3ccccc3)CC2)nc2sc3c(c12)CCC3 | 1.9e-08 | 3.4% | i | i | 5%
COc1ccc(C2NC(=O)NC(C)=C2C(=O)Nc2cc(C)ccc2C)cc1OC (stereo not given) | · | -0.3% | · | · | 2%
COc1ccc2[nH]cc(CCNc3ncnc4ccc(-c5ccoc5)cc34)c2c1 | 3.4e-09 | 1.9% | i | i | 2%

Bioassay records as filed in PubChem BioAssay.

The list is partial. The share of hits here may be higher or lower than overall.
